Screening data from PubChem.
Marburg entry inh = blocks Marburg virus binding to or entry into cells; Marburg virus pseudotyped entry inhibition, cell reporter; control for the full effect not named in the record; about a third of the inactives were read at about 46 µM; 300,000 compounds, 1.8% hits; AID 540276; Potency, µM (top dose mostly 37.8 µM), without a hit: at the top dose activity change, negative = inhibition, actives largely listed as inhibitors; active = well fitted inhibition curve with a large enough effect; inconclusive = small, poorly fitted or top-dose-only effect, or effect the other way; inactive = flat fitted curve, though single readings scatter; tested in HEK293 cells; about a fifth of its hits are not listed in these tables; further: on the % scale 0 is the no-effect control and ±100 the full control effect; luciferase read-out
StopGo reporter = FMDV 2A StopGo reporter, luciferase signal; human cells with a luciferase reporter of 2A StopGo recoding; control for the full effect not named in the record; Potency, µM (top dose mostly 57.9 µM), for the others: at the top dose signal change, negative = less light; 410,000 compounds, 1.2% hits; AID 1159524; active = well fitted falling curve with a large enough effect; inconclusive = small, poorly fitted or top-dose-only effect; inactive = no such curve, though single readings can be large or run the other way; tested in HEK293T cells; further: on the % scale 0 is the no-effect control and ±100 the full control effect; nearly all actives have a fitted effect of over 45% in size; luciferase light after 4 h
RE007 growth inh = less growth of the S. pombe RE007 Vpr strain. S. pombe RE007 Vpr strain, BacTiter-Glo ATP luminescence, 24 h; control for the full effect not named in the record. Potency, µM (top dose mostly 92.2 µM), for inactives: top-dose activity change, negative = less growth. 360,000 compounds, 0.21% hits. AID 651644; active = well fitted falling curve with a large enough effect; inconclusive = small, poorly fitted or top-dose-only effect; inactive = no such curve, though single readings can be large or run the other way;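 further: on the % scale 0 is the no-effect control and ±100 the full control effect; nearly all actives have a fitted effect of over 50% in size; the assay follows cell death caused by Vpr and the record does not say whether a fall means rescue or toxicity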
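Fission yeast RE007 carrying one integrated HIV-1 vpr copy, seeded at OD 0.01 in PMG+AL medium with 23 nL pinned compound. Grown 24 h at 30 degrees; viability read by BacTiter-Glo luminescence after 5 min.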
Cruzain Triton = blocks cruzain activity in presence of Triton detergent; P25779; purified cruzain, Z-FR-AMC fluorescence, 0.01% Triton; Potency, µM, for the others: max response, negative = inhibition, usual class: inhibitors; 200,000 compounds, 0.43% hits; AID 1478; active means well fitted curve in the direction sought with a large enough effect; inconclusive means small, poorly fitted or top-dose-only effect, or another doubt; inactive means no such curve, though single readings can be large; an effect the other way counts as inactive or inconclusive;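 further: plate controls were neutral wells for no effect and buffer without enzyme for full effect; nearly all actives have a fitted effect of over 40% in size; top concentration of the series not given in the record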
Target sequence (P25779 123-467 limits assumed): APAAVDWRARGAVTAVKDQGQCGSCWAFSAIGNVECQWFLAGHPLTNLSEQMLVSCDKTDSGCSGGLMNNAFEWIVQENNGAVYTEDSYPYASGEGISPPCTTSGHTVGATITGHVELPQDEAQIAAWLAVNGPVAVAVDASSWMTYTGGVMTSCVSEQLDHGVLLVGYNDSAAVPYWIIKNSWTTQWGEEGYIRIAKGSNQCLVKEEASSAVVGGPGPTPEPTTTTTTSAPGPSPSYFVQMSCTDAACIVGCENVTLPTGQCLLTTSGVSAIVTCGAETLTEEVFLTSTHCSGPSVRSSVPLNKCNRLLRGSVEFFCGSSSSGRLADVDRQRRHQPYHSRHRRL
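Cysteine protease activity tested under reducing, mildly acidic conditions (100 mM sodium acetate pH 5.5, 5 mM DTT) plus 0.01% Triton X-100. Cruzain 1.5 nM; substrate Z-FR-AMC 2 uM; 15 min compound preincubation at room temperature.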
Cruzain inh noDet = blocks cruzain activity in detergent-free assay; AID 1476; 200,000 compounds, 2.3% hits; purified cruzain, Z-FR-AMC fluorescence, no detergent; Potency, µM, inactives show max response, negative = inhibition, actives largely listed as inhibitors; active means well fitted curve in the direction sought with a large enough effect; inconclusive means small, poorly fitted or top-dose-only effect, or another doubt; inactive means no such curve, though single readings can be large; an effect the other way counts as inactive or inconclusive;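 further: plate controls were enzyme without inhibitor for no effect and buffer without enzyme for full effect; nearly all actives have a fitted effect of over 40% in size; top concentration of the series not given in the record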
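Purified cruzain at 1.5 nM, pre-incubated 15 min with compound at room temperature in 100 mM sodium acetate pH 5.5, 5 mM DTT, 0.00005% Triton X-100. Reaction started with 2 uM Z-FR-AMC; AMC fluorescence increase over 60 s gives rate.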
SARS PLP yeast = inhibitors of SARS-CoV papain-like protease in yeast; 330,000 compounds, 0.19% hits; Potency, µM (series often up to 32.9 µM), inactives show at the top dose activity, positive = growth rescue; S. cerevisiae expressing SARS-CoV PLpro, growth rescue; control for the full effect not named in the record; further: 0% is about no effect; nearly all actives have a fitted effect of over 55% in size; growth read by luminescence after 48 h
NS1 inh = blocks influenza NS1 protein function. S. cerevisiae slowed by influenza A NS1, growth recovery by OD600. Potency, µM (top dose mostly 46.1 µM), without a hit: at the highest dose activity, positive = more growth. 270,000 compounds, 0.4% hits. AID 2326; further: actives are rising curves; nearly all actives have a fitted effect of over 50% in size
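A cell-based growth assay was used: compounds that relieve NS1-induced slow growth of budding yeast raise OD600. Assay medium was yeast nitrogen base with ammonium sulphate and -URA supplement, pH 6.0, with 2% galactose.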
LASV entry inh = inhibitors of Lassa virus binding or cell entry. Lassa virus pseudotype entry inhibition, cell reporter; control for the full effect not named in the record. 300,000 compounds, 1.2% hits. Potency, µM (titrated, usually from 37.9 µM), for inactives: top-dose activity change, negative = inhibition, most hits filed as inhibitors; active means well fitted inhibition curve with a large enough effect; inconclusive means small, poorly fitted or top-dose-only effect, or effect the other way; inactive means flat fitted curve, though single readings scatter; tested in HEK293 cells; further: on the % scale 0 is the no-effect control and ±100 the full control effect; nearly all actives have a fitted effect of over 50% in size; luciferase read-out
Active calls of the source: *; u = inconclusive; x = no result given; [ ] = remark or other dose. Unless noted, the call rests on the fitted dose curve; in most records, active means well fitted rising curve with a large enough effect; inconclusive means small, poorly fitted or top-dose-only effect; inactive means no such curve, though single readings can be large or run the other way. Potency means the concentration at half of the fitted maximal effect. Hits appear at their usual frequency. Share with any hit: about 4.5%.

SMILES | Marburg entry inh | StopGo reporter | RE007 growth inh | Cruzain Triton | Cruzain inh noDet | SARS PLP yeast | NS1 inh | LASV entry inh
CCOC(=O)c1c(N2C(=O)CC(Sc3ccccc3C(=O)O)C2=O)sc2c1CCCC2 (centres undefined) | 0%[46.1 µM] | -6% | u | x | x | -4% | -32% | 9%[46.1 µM]
COc1ccc(C(=O)OCN2C(=O)c3ccccc3C2=O)cc1 | 1%[46.1 µM] | 1% | 18% | x | x | 0% | 1% | u
NC(=O)CC(NC(=O)Cc1cccc2ccccc12)c1ccc(NCCCN2CCCC2=O)c([N+](=O)[O-])c1 (centres undefined) | x | 13% | -1% | x | x | -10% | -9% | x
Cc1ccc(NC(=S)Nc2cccc(-c3n[nH]c(=S)o3)c2)cc1 | u | 28% | 11% | x | x | -1% | 9% | u
Cc1ccc(S(=O)(=O)NCC(=O)NCC(=O)N2CCN(c3ncccn3)CC2)cc1C | -2%[46.1 µM] | -9% | -2% | x | x | -1% | 5% | -3%
O=C(COC(=O)c1nc(Cl)ccc1Cl)NCc1ccccc1 | 12%[46.1 µM] | -11% | 7% | x | x | -1% | -3% | 16%
O=C(Oc1ccc(OC(=O)c2ccco2)c(S(=O)(=O)c2ccc(Cl)cc2)c1)c1ccco1 | -4% | 31%[activator] | 10% | -3.9% | u | -14% | 4% | 0%
COc1ccc(-c2cc(-c3ccccc3)nc3ncnn23)cc1 | x | -7% | -20% | x | x | -2% | -3% | x
COc1cccc(C(=O)Nc2nnc(Cc3ccc(OC)c(OC)c3)s2)c1 | 14%[46.1 µM] | 2% | -9% | x | x | 1% | -5% | -3%[46.1 µM]
CCc1ccc(NC(=O)c2nn(-c3ccc(OC)cc3)c(=O)c3c2c2ccccc2n3C)cc1 | -5%[46.1 µM] | -9% | x | -0.7% | -15% | x | x | -6%[46.1 µM]
Cc1ccc(S(=O)(=O)N2CCC(C(=O)N/N=C/c3ccncc3)CC2)cc1 | x | -10% | -16% | x | x | -1% | -5% | x
Clc1ccccc1-c1nnc2sc(CCc3ccccc3)nn12 | 7% | 18% | -9% | -2.0% | -28% | u | -87% | -13%[14.3 µM]
CCOC(=O)N1CCN(CC(c2ccccc2)c2ccccc2)CC1 | x | -22% | -4% | x | x | 9% | -14% | x
Fc1ccccc1C1c2[nH]c3ccccc3c2CCN1CCCn1cccn1 (centres undefined) | u | -19% | -4% | x | x | 0% | -1% | 11%[46.1 µM]
COc1ccc(C(=O)c2cn(CC(=O)Nc3ccc4c(c3)OCO4)c3ccc(OC)cc3c2=O)cc1 | -29%[46.1 µM] | -1% | x | -8.6% | 1% | x | x | -24%[46.1 µM]
O=C(Cn1ncc(N2CCCC2)c(Cl)c1=O)c1ccc(Cl)cc1 | u | 26% | 3% | x | x | -1% | -1% | -12%[46.1 µM]
CCOc1ncccc1C(=O)OC(C)C(=O)NC1CCCCC1 (centres undefined) | -7%[46.1 µM] | -7% | 3% | x | x | -1% | x | 13%
OC1(c2cccc(C(F)(F)F)c2)CCNCC1 | -24% | -8% | 3% | -0.4% | 13% | 6% | 1% | -2%
COc1ccc(C(=O)O)cc1S(=O)(=O)NCCN(C)C | 1%[46.1 µM] | 3% | -25% | x | x | 0% | 0% | 2%
O=C1CCN(C(=S)NCc2ccccc2)CC1 | -1%[46.1 µM] | 0% | -4% | x | x | -4% | x | 19%[46.1 µM]
CCN(CC)CCNC(=O)CNC(=O)c1nn(-c2ccc(OC)cc2)c(=O)c2ccccc12 | x | -21% | -4% | x | x | 3% | 4% | x
Cc1ccc(OCc2nc(-c3ccc(C(=O)NCc4ccc(OC(C)C)cc4)cc3)oc2C)cc1 | x | -12% | x | 1.4% | -7% | x | x | u
COc1ccccc1NC(=S)NNC(=O)c1c(Cl)c(C)nn1C | -22%[46.1 µM] | -26% | -1% | 1.3% | 0% | -3% | -26% | -4%
COC(=O)c1ccc(C(=O)OC)c(NC(=O)CN(C)Cc2ccc(Cl)c(Cl)c2)c1 | -30% | 0% | 11% | -6.5% | u | -19% | 0% | 0%
CN(C)S(=O)(=O)c1cccc(-c2cn3cc(Cl)ccc3n2)c1 | u | 16% | 17% | -3.4% | -1% | -2% | -5% | 7%
COc1ccc(C(C(=O)NCCC(C)C)N(CCO)C(=O)c2snc(C(N)=O)c2N)cc1 (centres undefined) | x | 6% | 8% | x | x | -1% | 12% | x
Cc1ccc(NC(=O)Cn2c(O)c(N=NC(N)=S)c3ccccc32)cc1 | 8.9µM* | -24% | 33% | x | x | -2% | 5% | u
Cc1onc(-c2ccccc2)c1-c1nc2cc(Cl)ccc2c(=O)o1 | -12%[46.1 µM] | -9% | 1% | x | x | 0% | -5% | -12%
CC(C)C(=O)Nc1cccc(NC(=S)NC(=O)c2ccc3c(c2)OCO3)c1 | 19% | 46%[activator] | 0% | x | x | -2% | -13% | u
O=C(CCCc1nc(-c2ccccc2Cl)no1)N1CCOCC1 | x | -7% | -5% | x | x | 1% | -1% | x
Cc1ccc(C(=O)NC(=S)NCCN2CCOCC2)cc1 | 9% | 24% | x | -0.2% | -6% | -16% | 9% | 25%
O=C(O)/C=C/C(=O)N1CCN(S(=O)(=O)c2cc(C(F)(F)F)ccc2Cl)CC1 | u | -20% | 5% | x | x | 0% | x | 17%[46.1 µM]
Cc1ccc(N2CC(NC(=O)c3cccs3)CC2=O)cc1 (centres undefined) | x | -13% | x | -0.2% | -14% | x | x | 8%[46.1 µM]
O=S(=O)([O-])C/C(=C\c1ccc(Cl)cc1)c1cc[n+](CCO)cc1 | 11% | -3% | 2% | x | x | 3% | x | -8%
CCc1ccccc1NC(=S)N(CCCN(C)C)Cc1cc2cc3c(cc2[nH]c1=O)OCO3 | u | -13% | -7% | x | x | 0% | -1% | 12%
Cc1cnc(-c2nnc(N(C)C(=O)C3CCOC3)s2)cn1 (centres undefined) | 22% | 21% | 6% | -1.3% | 1% | -2% | -5% | 5%
O=C(c1ccc(S(=O)(=O)N2CCCCCC2)cc1)N1CCCC(C(F)(F)F)C1 (centres undefined) | 3% | -8% | -14% | x | x | 0% | x | 1%
Cc1cccc2sc(NC(=O)c3cccn(Cc4ccccc4)c3=O)nc12 | x | 20% | x | -5.1% | -9% | x | x | u
O=C(CCc1ccccc1)NC1C2CC3CC(C2)CC1C3 (centres undefined) | 6%[46.1 µM] | 1% | -7% | x | x | -5% | -24% | 1%[46.1 µM]
Cc1ccc(NC(=O)C2CCN(c3cc(C)nc4c(-c5ccc(Cl)cc5)c(C)nn34)CC2)c(C)c1 | u | -14% | x | 2.3% | 3% | x | x | u
Cn1c(=S)[nH]c2c(c1=O)C(C)(C)Cc1ccccc1-2 | -6%[46.1 µM] | u | 1% | x | x | 23% | x | 22%
CC(=O)NCCC(=O)N1CCc2c([nH]c3ccccc23)C1c1cccc(Cl)c1 (centres undefined) | u | -9% | -10% | x | x | 0% | 1% | -3%
Cc1ccc(NC(=O)CCN2CCN(C/C=C/c3ccccc3)CC2)cc1 | 8.9µM* | u | 16% | 0.5% | -2% | -11% | -9% | -30%
CCCOc1ccc(C(=O)NCC(c2ccco2)N(C)C)cc1 (centres undefined) | u | 5% | x | -2.8% | 0% | -1% | -5% | 13%
CC(C)C(C)NC(=O)COc1ccc(-c2ccccc2)cc1 (centres undefined) | -14%[46.1 µM] | -8% | u | 5.3% | 1% | 2% | -8% | -9%
Cn1c(-c2ccc3c(c2)OCO3)cnc1NCc1ccccc1 | u | 41%[activator] | -4% | -4.1% | -10% | -2% | -7% | 17%
Cc1ccc(NC(=O)CSc2ccc3nnc(CCNC(=O)c4ccccc4)n3n2)c(C)c1 | -9% | 5% | -16% | -5.4% | 2% | 7% | -4% | u
Clc1ccccc1-c1nc2ccccc2c2nc3ccccc3n12 | -3% | u | -6% | -4.9% | 2% | -7% | -5% | -14%
O=C(NC(C(=O)c1ccccc1)N1CCCCC1)c1ccccc1 (centres undefined) | 8% | 6% | -2% | 1.7% | 4% | 9% | -3% | -18%
Fc1ccc2nc(Nc3nc4cc5c(cc4s3)OCO5)sc2c1 | u | 53%[activator] | -13% | -2.4% | u | -35% | 29% | 0%
O=C1CCCCC1Sc1nnc(Cc2cccs2)n1CCc1ccccc1 (centres undefined) | -18%[46.1 µM] | 22% | 1% | 2.0% | -11% | 7% | 4% | -19%
O=c1cc(-c2ccccc2)[nH]c2nc(Cl)ccc12 | u | x | x | 3.5% | 10% | x | -3% | 10%
O=C(/C=C/c1c(Cl)cccc1Cl)N1CCN(c2ncccn2)CC1 | 1%[46.1 µM] | 0% | -28% | -4.5% | u | 4% | -119% | 6%
Cc1cc(C)nc(NC2=NCC(=O)N2c2ccc(F)c(Cl)c2)n1 | 6% | -4% | 4% | -5.4% | -1% | 0% | 2% | 3%
c1ccc(C2CSc3ccccc3N2)cc1 (centres undefined) | x | 41%[activator] | -5% | x | x | -2% | 3% | x
Nc1ccccc1Sc1ccccc1[N+](=O)[O-] | u | -17% | x | -9.0% | 1% | 30% | 13% | -15%
COc1ccc(S(=O)(=O)N(CCCN2CCOCC2)Cc2cccc(OC)c2OC)cc1 | -1% | -5% | -8% | 5.1% | -2% | 9% | -9% | u
CN1C(=O)C(O)(C2COC(C)(C)CC2=O)c2cc(Br)ccc21 (centres undefined) | u | -1% | 17% | -3.0% | 11% | -3% | -20% | u
COc1ccc2oc(C(=O)N3CCN(c4ncccn4)CC3)c(C)c2c1 | x | -6% | -4% | x | x | -5% | -24% | x
CNC(=O)COc1coc(CN2CCN(C(=O)c3ccco3)CC2)cc1=O | 12% | -7% | 12% | x | x | 1% | x | 4%
